Menin MLL FP FL: displaces fluorescein MLL peptide from human menin | FP activity change, % at 61.4 µM | Fluorescence polarization, fluorescein-MLL peptide displacement from menin | 290,000 tested, under 10 active; inconclusive = falling polarisation curve, or a change in total fluorescence; inactive = total fluorescence flat and polarisation flat or rising; no compound was filed as active; the % refers to the polarisation; negative = inhibition;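 note: % of control where 0% means no effect; inhibitors lower the polarisation; unlabelled MLL peptide was the positive control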
gsp antag: antagonizes gsp, the McCune-Albright syndrome mutation | AID 624288 | 340,000 tested, 0.4% active | gsp-mutant cells, cAMP HTRF, 30 min; control for the full effect not named in the record | Potency, µM (highest dose often 76.9 µM), inactives show at the top dose activity change, negative = inhibition, hits mostly inhibitors; active = falling curve of any shape with a large fitted effect; inconclusive = falling curve, mostly with a smaller effect; inactive = flat or rising curve; cell line not stated here;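 note: intracellular cAMP measured with PDE inhibitor Ro 20-1724 present during compound exposure; potency is the fitted concentration of half-maximal effect; % is set by controls: 0 for no effect and ±100 for the full control effect; nearly all actives have a fitted effect of over 65% in size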
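HTRF cAMP measurement after 30 min RT detection following 30 min, 37C compound treatment alongside […] (added as 300 uM solution) in G418-selected cells seeded at 2000/well and grown 16–24 h.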
ClpP mod: qHTS Assay for Activators of ClpP. purified B. subtilis ClpP, FRET peptide cleavage, 20 min. Potency, µM (series often up to 57.5 µM), for the others: top-dose activity change, negative = active. AID 651965, 2013. 340,000 tested, 1.9% active; active = well fitted falling curve with a large enough effect; inconclusive = small, poorly fitted or top-dose-only effect; inactive = no such curve, though single readings can be large or run the other way; note: potency is the fitted concentration of half-maximal effect; the source files actives as falling curves though it sought activators and does not explain the sign; nearly all actives have a fitted effect of over 65% in size; many hits overshoot -100%
Target sequence (P80244 whole entry, looked up): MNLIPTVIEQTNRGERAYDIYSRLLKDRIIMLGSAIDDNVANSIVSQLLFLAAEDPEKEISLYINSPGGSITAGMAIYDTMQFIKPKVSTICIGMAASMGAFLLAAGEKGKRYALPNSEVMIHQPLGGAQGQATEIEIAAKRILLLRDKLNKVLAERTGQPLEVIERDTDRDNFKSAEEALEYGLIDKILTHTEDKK
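Purified B. subtilis ClpP, 10 microg/mL final in Tris/HCl pH8 with KCl, BSA, glycerol and Tween-20, cleaved an Abz/nitrotyrosine-quenched decapeptide. Fluorescence (ex 320, em 430) was read at 0 and 20 min at room temperature. Delta was normalized to 5.8 microM ADEP and DMSO/no-enzyme controls.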
gsp ag: activates gsp, the McCune-Albright syndrome mutation; gsp mutant cells, cAMP HTRF, 30 min; control for the full effect not named in the record; Potency, µM (highest dose often 76.9 µM), without a hit: at the highest dose activation (cAMP increase), actives largely listed as activators; 340,000 tested, 0.13% active; AID 624287; active = well fitted activation curve with a large enough effect; inconclusive = small, poorly fitted or top-dose-only effect, or another doubt; inactive = no such curve, though single readings can be large or run the other way; cell line not stated here;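 note: phosphodiesterase inhibitor Ro 20-1724 added with compounds to block cAMP breakdown; potency is the fitted concentration of half-maximal effect; nearly all actives have a fitted effect of over 60% in size; about a fifth of the inactives were tested at one dose only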
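Cells in DMEM/10% FBS with G418 were pretreated with compounds in DMSO plus […] (300 uM stock) for 30 min at 37C. cAMP was measured by HTRF (cAMP-d2 plus anti-cAMP antibody-K) after 30 min at room temperature.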
TRPML1 ag: agonists of human TRPML1 channel; TRPML1-expressing cells, Ca2+ dye fluorescence, FDSS; host cell line not named in the record; reference of the full effect not given here; activation, % (no concentration beside the values); 410,000 tested, 0.12% active; AID 624414; in the data active = activation above about 50%; inconclusive = about 30% to 50%; inactive = below about 30%; note: 0% is about no effect; the text of the record puts the active cut at 80%
Target sequence (Q9GZU1 whole entry, looked up): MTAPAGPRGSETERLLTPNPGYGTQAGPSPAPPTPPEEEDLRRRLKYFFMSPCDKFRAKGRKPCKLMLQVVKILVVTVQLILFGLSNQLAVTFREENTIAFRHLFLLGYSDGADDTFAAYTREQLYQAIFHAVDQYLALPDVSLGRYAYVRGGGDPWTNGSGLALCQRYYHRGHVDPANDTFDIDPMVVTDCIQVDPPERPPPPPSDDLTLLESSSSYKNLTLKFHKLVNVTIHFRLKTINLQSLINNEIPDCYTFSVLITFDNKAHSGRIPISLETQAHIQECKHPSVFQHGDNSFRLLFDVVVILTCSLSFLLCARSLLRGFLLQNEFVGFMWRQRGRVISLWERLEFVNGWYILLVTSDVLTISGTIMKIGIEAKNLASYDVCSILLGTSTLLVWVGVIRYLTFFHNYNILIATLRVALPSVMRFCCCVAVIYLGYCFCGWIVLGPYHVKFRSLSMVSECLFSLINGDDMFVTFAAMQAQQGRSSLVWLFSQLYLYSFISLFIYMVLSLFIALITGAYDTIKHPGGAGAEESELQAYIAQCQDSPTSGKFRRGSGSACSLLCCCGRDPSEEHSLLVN
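Agonist activity was taken from a 110 s kinetic Ca2+ dye read on the FDSS after pinning compounds onto TRPML1-DL cells. The cells were seeded at 1,500/well with Tet inducer, incubated about 16 h, then dye-loaded at room temperature.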
TRPML1 blocker: inhibitors of human TRPML1 channel. Q9GZU1. TRPML1-inducible cells, Ca2+ dye fluorescence, FDSS; hits give low values; inhibition of EC80 agonist-evoked calcium signal. activity change, negative = inhibition, % (no concentration beside the values). 390,000 tested, 0.02% active. AID 624415; in the data active means activity change below about -50%; inconclusive means about -30% to -50%; inactive means above about -30%;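 note: stimulus is agonist 54-4 at its EC80 concentration; % is set by controls: 0 for no effect and ±100 for the full control effect; compound concentration not given in the record; the text of the record puts the active cut at -80%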
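TRPML1-DL cells, Tet-induced overnight (~16 h, 37 °C) at 1,500 cells/well, were loaded with Ca8 no-wash dye plus quencher for 45-90 min at room temperature. Compounds were pinned during FDSS kinetic reading; agonist 54-4 at EC80 (4 uM final) then added.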
The depositor's hits bear a star; u = inconclusive; x = no result given; [ ] = remark or other dose.

smiles	Menin MLL FP FL	gsp antag	ClpP mod	gsp ag	TRPML1 ag	TRPML1 blocker
CCn1nc(CC(=O)Nc2ccc(-n3cnnn3)c(OC)c2)c2ccccc2c1=O	2.7	10.0%	-9.8%	-27.0%	1.4	23.8
Cc1cccc(NC(=S)NCC(c2cccnc2)N2CCOCC2)c1 (configuration not stated)	0.1	6.8%	-1.3%	u	0.9	6.3
Cc1ccc(-n2c(=O)c3c(cnn3C)n(CC(=O)Nc3cc(C)ccc3C)c2=O)cc1	x	x	-2.0%	x	0.0	-20.1
COC(=O)CCCC1=CC2=C(c3ccccc3)C(=O)C(C)(OC(=O)C3CCCC3)C(=O)C2=CN1C1CC1 (configuration not stated)	-3.0[11.7 µM]	-3.4%	-1.0%	x	-0.6	3.2
COc1cccc(C(=O)N(CN2CCCC2=O)c2cc(C)on2)c1	4.4	1.4%	2.3%	17.9%	-0.7	4.2
Cc1ccc(S(=O)(=O)Nc2ccccc2C(=O)Nc2sccc2C(=O)NN(C)C)cc1	0.4	-8.9%	-2.1%	-24.8%	-0.6	-8.5
Cc1nn(S(=O)(=O)c2cccc([N+](=O)[O-])c2)c(C)c1Br	-0.1	x	x	16.4%[15.4 µM]	-0.4	5.0
COc1ccc(CCNC(=O)c2n[nH]c3ccccc23)cc1	-2.9	3.6%	-1.2%	21.4%	0.3	-0.6
CC(C)(C)n1nc2c(c1NC(=O)c1ccccc1S(=O)(=O)C(F)F)CS(=O)(=O)C2	x	-5.7%	-1.7%	13.2%	0.7	18.1
COc1ccc(CCNc2cc(C)[nH]c(=O)c2)cc1OC	-3.1	8.5%	-0.4%	-72.2%[inhibitor]	1.4	20.1
O=C(NCCS(=O)(=O)NC1CCCCC1)c1ccc2c(c1)OCO2	x	6.2%	x	14.7%[15.4 µM]	0.6	-6.0
O=C1CC(NNc2nc3ccccc3s2)C(=O)N1c1ccccc1 (configuration not stated)	-0.2	4.0%	0.3%	4.5%	-0.2	-10.2
Cc1cccc(C)c1NC(=O)Cn1cc(C(=O)C2CC2)c2ccccc21	x	x	-3.7%	x	0.8	17.8
CC(OC(=O)Cc1n[nH]c(=O)c2ccccc12)C(=O)Nc1ccc(S(N)(=O)=O)cc1 (configuration not stated)	x	17.6%	-0.2%	24.9%	-0.4	9.1
O=C(COc1nc2ccccc2nc1N1CCOCC1)Nc1cccc(S(=O)(=O)N2CCCCC2)c1	11.9	-8.3%	2.7%	-6.1%	0.8	42.9
Cc1ccc(-c2c[n+](CC(=O)N3c4ccccc4Sc4ccccc43)c3n2CCC3)cc1	-1.1	6.1%	u	-51.4%[inhibitor]	-0.8	4.1
Nc1nc(SCC(=O)Nc2ccc(F)cc2)[nH]c(=O)c1NC(=O)c1ccc(F)c(F)c1	x	9.0%	4.1%	1.2%[15.4 µM]	0.3	-7.3
N=C1C(=O)OCC1c1ccccc1NC(=O)CN1CCCCC1 (configuration not stated)	1.1	17.6%	-3.0%	u	0.3	-16.2
O=C(C1CC1)N1CCN(S(=O)(=O)c2ccc3c(c2)OCCO3)CC1	-3.0	6.1%	x	1.4%	0.4	11.6
CCOC(=O)c1sc2ncn(/N=C/c3cccnc3)c(=O)c2c1C	0.5	-5.7%	-1.9%	0.0%	-0.8	18.6
COc1ccc(NC(=O)N/C=C/c2ccccc2)cc1	5.3	-4.7%	x	26.3%	-0.6	-12.8
Cc1nn(CC(=O)Nc2ccc3c(c2)nc(CN2CCCC2)n3C)c(=O)c2ccccc12	5.4	-10.0%	-5.1%	4.5%	0.7	7.0
CC1CC2=C(NC(=S)NC2c2ccccc2F)/C(=C/c2ccccc2F)C1 (configuration not stated)	-0.7	-9.5%	x	-14.7%	1.3	-2.1
O=[N+]([O-])c1ccc(Oc2ccc(F)cc2Br)c2ccncc12	-1.6	2.2%	2.0%	-1.5%	2.0	18.7
COc1ccc(NC(=O)CCCNC(=O)c2ccc(Cl)cc2)cc1S(=O)(=O)N1CCCCC1	x	-14.4%	0.3%	-11.2%	-0.8	8.6
CCCCN(CC)CCCNC(=O)c1ccc2c(c1)N(CC)C(=O)c1ccccc1S2(=O)=O	-8.9	8.9%	0.7%	-24.2%	-0.5	1.2
COC(=O)c1c(-c2ccc(OC)cc2)oc2ccccc12	4.7	-11.4%	4.5%	2.5%	-0.2	5.8
COCC(=O)Nc1cc(C(=O)NCCc2ccccc2)ccc1Cl	-1.4	u	1.7%	u	-1.6	3.1
CS(=O)(=O)c1ccccc1-c1nnc(NC(=O)COc2ccc(Cl)cc2)o1	x	-5.7%	x	-24.0%[15.4 µM]	2.5	-3.0
C/C(=N\NC(=O)c1sccc1-n1cccc1)c1cccs1	-1.8	-2.3%	x	-6.8%	0.4	14.0
COc1ccc(Cl)cc1N(CC(=O)N1CCC(C)CC1)S(C)(=O)=O	0.0	0.3%	-1.1%	-42.6%[inhibitor]	0.4	-9.0
CC1CCN(Cc2ccc(NC(=O)C3CCN(c4nnc(-n5cccc5)s4)CC3)cc2)CC1	-1.1	6.1%	1.2%	-9.3%	0.4	9.0
Cc1cc2ccccc2n1CCNC(=O)C1CC1	0.8	-5.7%	4.3%	u	3.6	-10.4
NC(=O)c1ccccc1NC(=O)NC1CCCCC1	-0.4	4.7%	-1.2%	u	-0.3	-5.0
CCC(C(=O)Nc1ccc(C(=O)OC)cc1)n1nc(-c2ccc(C)cc2)c2c(c1=O)CCCC2 (configuration not stated)	x	x	-7.1%	x	2.7	-21.0
COc1ccc(NC(=S)NCC(c2ccco2)N2CCCC2)cc1 (configuration not stated)	0.2	x	x	6.2%[15.4 µM]	-0.9	3.8
Cc1ccc(/C=C/c2onc(C)c2S(=O)(=O)N2CCC(C(=O)NCC(C)c3ccccc3)CC2)cc1 (configuration not stated)	x	x	0.2%	x	-0.2	-4.9
CN(C)c1ccc(CN(C(=O)/C=C/c2ccccc2Cl)C2CCS(=O)(=O)C2)cc1 (configuration not stated)	-2.6	u	0.2%	14.9%	3.0	17.7
COc1c2occc2c(OC(C)=O)c2c(=O)cc(C)oc12	3.8	8.0%	u	7.9%[15.4 µM]	-1.5	-1.2
Cc1ccc(CCNC(=O)CC2Oc3ccc(C)cc3NC2=O)cc1 (configuration not stated)	-0.5	4.1%	-7.1%	9.8%	1.8	-11.5
COc1ccccc1OCc1ccc(C(=O)N(C)c2ccccc2)o1	-1.2	-5.2%	0.9%	-19.9%	2.7	1.9
O=C(N[C@@H]1C/C=C\C[C@@H](CC(=O)N(CCO)Cc2ccccc2)C(=O)N[C@@H](c2ccccc2)COC1=O)OCC1c2ccccc2-c2ccccc21	x	-16.2%	-1.4%	1.8%	0.1	12.1
CCSc1nnc(NC(=O)c2ccc(F)c(S(=O)(=O)N3CCOCC3)c2)s1	x	-15.0%	-1.7%	u	-0.6	11.5
COc1cc(OC)cc(C(=O)Nc2ccccc2N2CCOCC2)c1	2.4	-9.7%	-2.1%	8.3%	2.8	-2.3
CCCCCc1c(O)nc(SCCN(C)C)[nH]c1=O	-0.3	4.3%	0.8%	-19.6%	x	x
Clc1cc(-c2ccc(/C=N/n3cnnc3)o2)ccc1Br	7.9	-1.7%	x	6.0%	-0.7	-10.4
CCOC(=O)c1cccc(NC(=O)c2cc(S(=O)(=O)N3CCCC(C)C3)cn2C)c1 (configuration not stated)	x	x	-1.0%	x	1.1	-6.4
CCn1nc(NS(=O)(=O)c2ccccc2)c2cc3cc(C)ccc3nc21	x	-13.9%	-0.5%	19.2%	-0.2	11.2
Cc1nn(C)c(C(=O)NC2C3CC4CC(C3)CC2C4)c1Cl (configuration not stated)	0.2	-2.0%	-1.4%	1.5%[15.4 µM]	-0.4	4.1
CC1C[C@@]2(NC(=O)NC2=O)C(C)CN1C (some centres not stated)	1.4	4.8%	-0.5%	-9.5%	-0.4	11.0
N=C1C(c2ccccc2)=C(O)CN1CCCO	-0.5	4.3%	1.1%	24.9%	4.9	13.2
CC1CC(C)CN(c2nc(NCc3ccco3)nc(N)c2[N+](=O)[O-])C1 (configuration not stated)	9.9	-1.0%	2.8%	-8.0%	-0.4	-8.4
O=C(OCc1nnc(-c2ccccc2)o1)c1cc(F)c(F)cc1Cl	-1.9	-2.8%	-0.2%	6.2%[15.4 µM]	2.6	-5.1
Cc1ccc(C(=O)Nc2ccccc2-c2ccccc2)o1	0.0	-0.3%	-3.4%	17.2%	0.5	23.8
COc1cc(C2Nc3ccccc3-c3nnc(SCc4ccc(Cl)cc4)nc3O2)ccc1OCC(=O)O (configuration not stated)	x	x	0.2%	x	-0.7	-13.3
Cc1ccc(NC(=O)CN2C(=O)c3ccccc3C2=O)c(C)c1	4.6	-0.7%	x	8.6%	-0.3	-8.8
O=C(O)c1cccc(-n2cnc3cccnc32)c1	x	x	-1.2%	x	-0.4	16.5
CCn1c(SCC(=O)NC2CCCCC2)nnc1C(CO)NC(=O)c1ccccc1 (configuration not stated)	x	7.0%	-1.0%	-0.9%[15.4 µM]	0.3	7.1
Cn1cc(SCC(=O)Nc2nccs2)c2ccccc21	-0.3	-1.0%	1.4%	-79.1%[inhibitor]	-0.3	8.2
CS(=O)(=O)N(CC(=O)NC1CCCC1)C1CCCCC1	0.2	x	x	-5.7%[15.4 µM]	0.1	-16.8

The results go on.
smiles	Menin MLL FP FL	gsp antag	ClpP mod	gsp ag	TRPML1 ag	TRPML1 blocker
O=C(CN(C(=O)C1CSC(=O)C1)c1cccc(F)c1)NC1CCCC1 (configuration not stated)	-2.6	12.6%	0.0%	9.8%	0.6	23.0
C#CC(=O)N(c1cccc(OC)c1)C(C(=O)NC1CCCC1)c1cccs1 (configuration not stated)	-0.5	-9.0%	-1.3%	11.4%	0.3	-19.4
O=C(Oc1ccc2ccc(=O)oc2c1)c1ccco1	x	-9.1%	3.2%	48.2%	-0.5	9.8
CCC1CCCCN1C(=O)C(=O)c1cn(CC(=O)N(CC)CC)c2ccccc12 (configuration not stated)	x	-6.8%	-1.0%	u	-0.2	23.0
CC(=O)Nc1cccc(NC(=O)CSc2nc(=O)n3cccc(C)c3n2)c1	x	13.3%	-3.2%	u	-0.4	-5.3
CO/N=C(\C(=O)O)c1csc(NN=C(C)C)n1	0.8	2.2%	x	-0.5%	-0.1	2.1
Cc1ccc(Cn2c(CN3CCOCC3)nc3c2c(=O)n(C)c(=O)n3C)cc1	2.0	13.6%	1.5%	-5.4%	-0.6	23.1

Source: PubChem (National Center for Advancing Translational Sciences (NCATS))
